D2 agonist: human D2 receptor agonism in beta-arrestin assay; activation, % (no concentration beside the values); DiscoveRx PathHunter D2 beta-arrestin, luminescence, 90 min; 100% = 57 uM dopamine signal; hit rate 0.084% among 360,000; P14416; in the data active = activation above about 40%; inconclusive = about 15% to 40%; inactive = below about 15%; also: compound concentration not given in the record; the text of the record calls up to 30% inactive
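Agonist mode: compounds alone added to overnight-plated D2 PathHunter cells for 90 min at 37 C, with 57 uM final dopamine (EC100) defining full response. Beta-arrestin recruitment detected by chemiluminescent reagent, read after 1 h at ambient temperature.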
TRPML1 blocker: blocks the human TRPML1 channel; Q9GZU1; TRPML1-inducible cells, Ca2+ dye fluorescence, FDSS; hits give low values; inhibition of EC80 agonist-evoked calcium signal; activity change, negative = inhibition, % (test concentration not listed); hit rate 0.02% among 390,000; AID 624415; in the data active means activity change below about -50%; inconclusive means about -30% to -50%; inactive means above about -30%;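 also: stimulus is agonist 54-4 at its EC80 concentration; % is scaled to controls: 0 for no effect and ±100 for the full control effect; compound concentration not given in the record; the text of the record puts the active cut at -80%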
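TRPML1-DL cells, Tet-induced overnight (~16 h, 37 °C) at 1,500 cells/well, were loaded with Ca8 no-wash dye plus quencher for 45-90 min at room temperature. Compounds were pinned during FDSS kinetic reading; agonist 54-4 at EC80 (4 uM final) then added.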
TRPML1 ag: agonists of human TRPML1 channel | activation, % (no concentration beside the values) | Q9GZU1 | hit rate 0.12% among 410,000 | TRPML1-expressing cells, Ca2+ dye fluorescence, FDSS; host cell line not named in the record; reference of the full effect not given here; in the data active = activation above about 50%; inconclusive = about 30% to 50%; inactive = below about 30%; also: 0% is about no effect; the text of the record puts the active cut at 80%
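Calcium fluorescence on an FDSS kinetic reader gave the read-out. Tet-induced TRPML1-DL cells were plated overnight, dye-loaded (Ca8 with quencher, 45-90 min, room temperature, dark), then read 110 s after compound addition, and again 110 s after 4uM final 54-4 (EC80).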
Six1-Eya2 blk: Six1/Eya2 interaction inhibition; hit rate 0.56% among 360,000; activity change, % (concentration not given with the values); AlphaScreen GST-Six1/His-Eya2 binding, biochemical; hits give low values; control for the full effect not named in the record; Q15475+O00167; in the data active = activity change below about -65%; inconclusive = about -30% to -65%; inactive = above about -30%; also: % is scaled to controls: 0 for no effect and ±100 for the full control effect
Target sequence (O00167 whole entry, looked up): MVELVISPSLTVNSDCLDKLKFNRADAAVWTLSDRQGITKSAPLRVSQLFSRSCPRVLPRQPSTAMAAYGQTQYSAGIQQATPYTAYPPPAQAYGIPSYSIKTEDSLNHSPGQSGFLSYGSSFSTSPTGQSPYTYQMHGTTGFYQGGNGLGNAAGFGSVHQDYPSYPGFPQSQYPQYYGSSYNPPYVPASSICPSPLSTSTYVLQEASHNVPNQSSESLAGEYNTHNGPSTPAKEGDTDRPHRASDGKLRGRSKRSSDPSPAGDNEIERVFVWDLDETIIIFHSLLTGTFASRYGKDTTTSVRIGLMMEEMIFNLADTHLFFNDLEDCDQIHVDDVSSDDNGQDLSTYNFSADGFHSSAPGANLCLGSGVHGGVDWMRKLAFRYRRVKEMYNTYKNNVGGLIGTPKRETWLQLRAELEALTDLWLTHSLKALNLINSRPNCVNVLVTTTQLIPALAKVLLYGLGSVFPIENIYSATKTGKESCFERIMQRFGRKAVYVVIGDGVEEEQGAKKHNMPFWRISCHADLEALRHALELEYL
Target sequence (Q15475 whole entry, looked up): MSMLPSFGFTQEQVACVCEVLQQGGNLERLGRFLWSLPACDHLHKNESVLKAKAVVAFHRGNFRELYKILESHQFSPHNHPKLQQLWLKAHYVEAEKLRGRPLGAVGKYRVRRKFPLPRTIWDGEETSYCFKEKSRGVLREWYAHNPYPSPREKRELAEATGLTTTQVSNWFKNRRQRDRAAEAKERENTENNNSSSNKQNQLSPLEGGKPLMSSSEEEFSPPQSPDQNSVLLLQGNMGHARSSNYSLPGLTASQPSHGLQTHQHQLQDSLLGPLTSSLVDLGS
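GST-Six1 + His-Eya2 (5X stock: 250/500 nM); Tris pH 8.0, 300 mM NaCl, 0.05% BSA, 0.02% Tween 20; GSH donor/Ni acceptor beads; 1 h 37 °C dark; AlphaScreen readout.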
D2 PAM: human D2 receptor positive allosteric modulation. P14416. DiscoveRx D2 beta-arrestin cells, luminescence, 90 min; 100% = 57 uM dopamine signal. potentiation, % (test concentration not listed). hit rate 0.23% among 360,000. AID 624464; active = potentiation of 50% or more; inconclusive = 30% to 50%; inactive = 30% or less;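 also: compound concentration not given in the record; tested on top of an EC20 dose of dopamine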
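D2 cells co-treated with compound plus 50 nM dopamine (EC20) for 90 min at 37 deg C to detect potentiation. Beta-arrestin recruitment was read as enzyme-fragment luminescence after 1 h at ambient temperature. Full response was set by 57 uM dopamine.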
PINK1 modulator: modulators of PINK1 expression; AID 624263; hit rate 0.2% among 410,000; PINK1 immunofluorescence, high-content cytometry, 24 h; Potency, µM (highest dose often 76.6 µM), without a hit: at the top dose activation (PINK1 increase), hits mostly activators; active = well fitted activation curve with a large enough effect; inconclusive = small, poorly fitted or top-dose-only effect; inactive = flat fitted curve, though single readings scatter; cell line not stated here;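 also: potency is read from the fitted curve at half-maximal effect; % of control where 0% means no effect; nearly all actives have a fitted effect of over 65% in size; a mitochondrial uncoupler was the plate control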
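Fluorescence from anti-PINK1 antibody, together with nuclear and cell stains, was scanned on a laser-scanning cytometer. Before staining, stable-line cells were incubated 24 hours with compounds at 5 concentrations; primary antibody 12 h at 10 degrees C.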
Active calls of the source: *; ? = inconclusive; / = no result given. Rows were taken by chance. Share with any hit: about 1%.

Start of the listing, in advance:
Compound,PINK1 modulator,D2 agonist,TRPML1 ag,D2 PAM,TRPML1 blocker,Six1-Eya2 blk
Cc1ccccc1N(CC(=O)N/N=C/c1cc(C)n(-c2ccccc2C)c1C)S(C)(=O)=O,4.2%,0.6,1.2,-8,-12,-26
COc1ccc(S(=O)(=O)NC(C)C(=O)NCc2ccncc2)cc1C (stereo unspecified),1.2%,0.7,-0.7,4,-3,2
CSCC[C@H](NC(=O)c1cccc(S(=O)(=O)N2CCCCCC2)c1)c1nc2ccccc2[nH]1,-1.9%,-0.8,-0.7,-13,-10,-19
Cn1nnnc1SCC(=O)Nc1cc(C(C)(C)C)nn1-c1ccccc1,-2.0%,-2.0,1.0,-12,10,3

The list itself (from the top)
Compound,PINK1 modulator,D2 agonist,TRPML1 ag,D2 PAM,TRPML1 blocker,Six1-Eya2 blk
Cc1ccccc1N(CC(=O)N/N=C/c1cc(C)n(-c2ccccc2C)c1C)S(C)(=O)=O,4.2%,0.6,1.2,-8,-12,-26
COc1ccc(S(=O)(=O)NC(C)C(=O)NCc2ccncc2)cc1C (stereo unspecified),1.2%,0.7,-0.7,4,-3,2
CSCC[C@H](NC(=O)c1cccc(S(=O)(=O)N2CCCCCC2)c1)c1nc2ccccc2[nH]1,-1.9%,-0.8,-0.7,-13,-10,-19
Cn1nnnc1SCC(=O)Nc1cc(C(C)(C)C)nn1-c1ccccc1,-2.0%,-2.0,1.0,-12,10,3
Cc1cc(NC(=O)CCCN2C(=O)c3cccnc3C2=O)no1,-0.8%,-0.5,-0.5,-3,-10,2
N[C@@H](Cc1ccccc1)C(=O)N1CCOCC1,-0.6%,-4.1,-0.6,-13,-4,-1
O=C(COC(=O)c1cnccn1)Nc1cccc2ccccc12,2.4%,-6.9,-0.4,-5,-8,-1
O=C(O)COc1nsnc1N1CCOCC1,0.7%,-1.5,0.6,-15,-8,4
O=C1C2C(c3ccccc3)C=CC(c3ccccc3)C2C(=O)N1C1CCCCC1 (stereo unspecified),13%,-4.9,-0.1,-43,-7,4
CC(C)Cn1c(SCc2cccc(F)c2)nc2ccsc2c1=O,-1.1%,/,4.5,/,3,/
COc1cc2c(cc1NC(=O)Nc1ccccc1)oc1ccccc12,2.9%,-5.3,0.2,-25,45,-13
Cc1ccc(C(=O)/C=C/Nc2ccc(S(=O)(=O)Nc3onc(C)c3C)cc2)cc1,-0.8%,0.3,1.0,-9,-2,?
COCCN(C(=O)C1=COCCO1)c1c(N)n(CC(C)C)c(=O)[nH]c1=O,-0.3%,6.5,0.2,-3,-14,-1
COc1ccccc1C(=O)Nc1ccccc1N1CCOCC1,-1.5%,-2.8,-0.2,-17,-2,2
COc1cccc2cc(C(=O)N3CCN(c4ccccn4)CC3)c(=O)oc12,-0.7%,-2.0,-0.7,-9,-3,-14
O=C(CCNS(=O)(=O)c1ccccc1)NCC1CCCCC1,-4.1%,-0.5,0.0,-14,-3,1

Whole records from above. Values in the order: PINK1 modulator | D2 agonist | TRPML1 ag | D2 PAM | TRPML1 blocker | Six1-Eya2 blk
COc1ccc(S(=O)(=O)NC(C)C(=O)NCc2ccncc2)cc1C (stereo unspecified) reads 1.2% | 0.7 | -0.7 | 4 | -3 | 2
O=C(CCNS(=O)(=O)c1ccccc1)NCC1CCCCC1 reads -4.1% | -0.5 | 0.0 | -14 | -3 | 1
Cc1ccccc1N(CC(=O)N/N=C/c1cc(C)n(-c2ccccc2C)c1C)S(C)(=O)=O reads 4.2% | 0.6 | 1.2 | -8 | -12 | -26
O=C1C2C(c3ccccc3)C=CC(c3ccccc3)C2C(=O)N1C1CCCCC1 (stereo unspecified) reads 13% | -4.9 | -0.1 | -43 | -7 | 4

Part of the list above, with each value named:
> COc1cc2c(cc1NC(=O)Nc1ccccc1)oc1ccccc12
  PINK1 modulator: 2.9% | D2 agonist: -5.3 | TRPML1 ag: 0.2 | D2 PAM: -25 | TRPML1 blocker: 45 | Six1-Eya2 blk: -13

> Cc1ccc(C(=O)/C=C/Nc2ccc(S(=O)(=O)Nc3onc(C)c3C)cc2)cc1
  PINK1 modulator: -0.8% | D2 agonist: 0.3 | TRPML1 ag: 1.0 | D2 PAM: -9 | TRPML1 blocker: -2 | Six1-Eya2 blk: ?

Additional structures
Compound,PINK1 modulator,D2 agonist,TRPML1 ag,D2 PAM,TRPML1 blocker,Six1-Eya2 blk
O=C(COc1ccc(/C=N/NC(=O)C(=O)N2CCCCC2)cc1)Nc1ccccc1Cl,-1.3%,4.3,2.3,-3,1,1
CC(C)Oc1cccc(C(=O)C2CCCN(S(C)(=O)=O)C2)c1 (stereo unspecified),-1.1%,-4.3,-1.8,-6,1,5
O=C(c1ccccc1)c1ccc(-c2ccc(O)cc2)cc1,6.2%,1.2,4.6,-5,19,-10
Cc1ccccc1OCC(=O)NCC1CCCO1 (stereo unspecified),0.1%,-1.5,-0.2,1,-12,1
O=C(Nc1nc2ccccc2[nH]1)c1cccs1,-0.3%,-3.9,-0.1,-4,6,1
Cc1cccc(CSc2ncc(CO)n2Cc2ccc(F)cc2)c1,-4.6%,/,0.6,/,-6,/
O=CC(=Cc1ccccc1)c1ccccc1,1.6%,-5.9,-1.0,-8,-4,-4
Cc1cc(Br)ccc1NC(=O)CSc1c2c(nc3ccccc13)CCC2,3.1%,/,3.9,/,34,/
O=C1C=C(c2cc(F)ccc2F)C[C@@H](c2ccc(Cl)cc2)C1,1.7%,-6.4,0.0,-5,-7,15
Cc1ccc(Cl)cc1NC(=O)CCn1cccc1,-0.4%,-5.8,-1.0,-12,-4,-23
O=C(NCc1ccco1)C1CC(O)CN1C(=O)Nc1ccccc1 (stereo unspecified),1.2%,-0.7,0.2,-4,11,8
O=C1NCCc2c1[nH]c1c(Cl)ccc(Cl)c21,-1.8%,-3.4,-0.8,-34,-10,0
C=C(C)Cn1c(SCC(=O)Nc2cccc(Cl)c2)nc2sc3c(c2c1=O)CCCC3,4.3%,/,-0.7,/,3,/
O=C(C1CCCO1)N1CCN(C(=S)Nc2ccccc2Cl)CC1 (stereo unspecified),0.4%,-0.1,1.3,-3,21,-9
Cc1ccsc1CN(C)CC(=O)Nc1cccc(S(=O)(=O)N(C)c2ccccc2)c1,0.4%,0.5,2.9,-26,-2,-1
CC(C)C(=O)Nc1cc(-c2nc3ncccc3o2)ccc1Cl,1.5%,4.0,0.5,25,19,5

Exported as labelled records: entries from further up.
> O=C(C1CCCO1)N1CCN(C(=S)Nc2ccccc2Cl)CC1 (stereo unspecified)
  PINK1 modulator = 0.4%
  D2 agonist = -0.1
  TRPML1 ag = 1.3
  D2 PAM = -3
  TRPML1 blocker = 21
  Six1-Eya2 blk = -9

> C=C(C)Cn1c(SCC(=O)Nc2cccc(Cl)c2)nc2sc3c(c2c1=O)CCCC3
  PINK1 modulator = 4.3%
  D2 agonist = /
  TRPML1 ag = -0.7
  D2 PAM = /
  TRPML1 blocker = 3
  Six1-Eya2 blk = /

Continuation:
Compound,PINK1 modulator,D2 agonist,TRPML1 ag,D2 PAM,TRPML1 blocker,Six1-Eya2 blk
O=C(NCc1ccco1)NC(=O)c1csc([N+](=O)[O-])c1,-1.1%,6.1,0.3,21,15,-7
CCOC(=O)c1cc(-c2csc(COc3ccccc3Cl)n2)on1,0.0%,-1.8,2.6,-3,27,24
Nc1cnccc1C(=O)O,0.8%,?,3.9,?,7,-15
CC(NC(=O)c1ccc(C(F)(F)F)cc1)C(c1ccccc1)N1CCOCC1 (stereo unspecified),4.2%,0.8,-1.1,-3,-1,4
Cc1ccc(NC(=O)Nc2nnc(-c3ccccc3F)s2)cc1,0.1%,-6.8,-0.1,-3,11,-10
Cc1cc(NNC(=O)c2ccccc2)nc(NNC(=O)c2ccccc2)n1,2.7%,8.6,0.5,2,13,1
CCOC(=O)c1c(C)[nH]c(C(=O)COc2ccc3ccc(=O)oc3c2)c1C,7.6%,12,0.0,7,-6,-1
Cc1ccccc1Cn1nnc(-c2ccc(F)cc2)n1,0.2%,10,3.3,-8,43,31
Cc1cccc(NC(=O)[C@H](NC(=O)[C@@H]2Cc3ccccc3CN2)c2ccccc2)c1,17%,-2.8,0.8,-20,-21,-6
C=CCc1ccc(O)c(-c2ccc(O)c(CC=C)c2)c1,-1.3%,14,/,-17,/,-2
CCCCOc1ccc(Br)cc1/C(C)=N/NC1=NCCN1,1.4%,-5.3,-1.4,-41,22,3
COc1cc(C=O)ccc1OS(=O)(=O)c1ccccc1[N+](=O)[O-],-0.4%,-0.3,-0.6,0,0,-3
c1ccc(-c2nn3c(Cn4nnc5ccccc54)nnc3s2)cc1,/,-0.4,-0.6,-15,1,-2
CCCN1C(=O)CC(=O)N=C1SCC(=O)Nc1ccccc1F,-0.2%,2.2,1.8,12,9,-6
O=C(NCCc1ccccc1)C(=O)NCC1OCCN1S(=O)(=O)c1ccc(Cl)cc1 (stereo unspecified),12%,-1.7,0.9,-2,2,-2
O=C(COc1ccccc1F)NCCc1ccc2c(c1)OCCO2,3.0%,-0.3,-1.3,-6,-3,2
CN(C)c1ccc(NC(=O)C2C3C=CC(C3)C2C(=O)O)cc1 (stereo unspecified),-3.0%,9.1,0.5,1,-3,?
COc1cccc(Nc2nc3ccccc3nc2NS(=O)(=O)c2ccc(NC(C)=O)cc2)c1,5.0%,-1.2,0.4,11,-4,6
O=C(CSc1ccc2nnc(-c3cccnc3)n2n1)Nc1ccc(F)cc1F,-0.3%,-3.4,-0.1,-3,40,?
O=C(NCc1ccco1)C1CCCN1C(=O)NCc1ccccc1 (stereo unspecified),2.8%,-3.8,0.9,-2,-4,14
Cc1ccccc1NC(=O)Cn1nnc(C(=O)NCc2cccs2)c1N,6.7%,/,-1.1,/,-10,/
N/C(=N\OC(=O)CCc1ccccc1)c1cccnc1,-0.8%,1.4,3.7,-4,-18,2
Cc1ccccc1OCC(=O)Nn1c(COc2ccccc2)nc2ccccc2c1=O,1.0%,-3.2,-0.1,-2,-7,-4
CCOC(=O)c1ccc(NC(=O)c2cn(-c3ccccc3)nc2-c2ccc(OC)c(OC)c2)cc1,0.7%,/,0.9,/,13,/
CCOc1ccc(CCN2C(=O)C(=O)N([C@@H](Cc3ccccc3)CN3CCC[C@H]3CN3C(=O)C(=O)NC[C@@H]3Cc3ccc(O)cc3)C[C@@H]2CC(C)C)cc1,3.8%,/,-0.1,/,/,-18
CCc1nn(CC(=O)NCc2ccc(OC)c(OC)c2)c(=O)c2cc3sc(C)cc3n12,0.1%,/,5.1,/,50,/
CN(C(=O)Nc1cccc(C(F)(F)F)c1)C1CCCCC1,2.8%,-3.8,-0.2,-10,-3,-2
Cc1ccccc1C(=O)NC1CCN(Cc2nnnn2CCc2ccccc2)CC1,-0.5%,-3.0,-0.8,-17,-1,-1
Cc1cccc(C=NOCCc2ccccc2)n1,6.1%,6.8,1.9,14,14,21

Compound activity: PubChem, National Center for Advancing Translational Sciences (NCATS)
